NPYLR7 agonist – activates Aedes aegypti NPYLR7 receptor. HEK293T NPYLR7/Galpha15, GCaMP6s calcium fluorescence. activation, % at 10 µM. 270,000 tested, 0.15% active. AID 1259423; in the data active = activation above about 40%;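 note: 0% = vehicle and 100% = reference agonist at the receptor; some compounds past the cut are filed as inactive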
NPYLR7 agonist max-min – also measured in NPYLR7 agonist; calls as there; activation, %; measured here: Max-Min RFU normalised activation; some inactives read as strong as hits;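 span of the calcium signal over five minutes; 0% = vehicle and 100% = native peptide agonist; compound fluorescence can raise it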
Starred values were filed as active, the others as inactive; & = joins results of further samples.

SMILES | NPYLR7 agonist | NPYLR7 agonist max-min
Cc1ccccc1-n1c(SCc2nc(C(=O)NCCc3ccc(Cl)cc3Cl)cs2)nnc1-c1ccncc1 | 24 | 32
O=C(NC(C(=O)NCc1ccco1)C1CCN(C(=O)c2ccc(C(F)(F)F)cc2)CC1)c1ccccc1 (stereo unspecified) | 9 | 8
CC(C)c1ccc(CCNC(=O)c2sccc2S(=O)(=O)N2CCOCC2)cc1 | 9 | 12
O=C(O)/C=C/c1c(Cl)nc2sccn12 | -1 | -3
Cc1ccc(S(=O)(=O)NNC2C3=C(CCCC3)C(=O)N2CC2CCCO2)cc1 (stereo unspecified) | 1 | 30
CC(C)CN(Cc1ccccn1)C(=O)c1ccsc1 | 1 | 0
Cc1oc(-c2ccc(-c3ccccc3)cc2)nc1CN1CCCCC1CCN1CCCC1=O (stereo unspecified) | -12 | -15
Cn1ncc2c(N3CCC(N4CCCC4)CC3)nc(-c3cccnc3)nc21 | 1 | 1
Cc1cc(C)nc(NN=Cc2c(O)n(C)c(=O)n(C)c2=O)n1 | -2 | -8
CN(Cc1ccc2ccccc2c1)C(=O)CNC(=O)C1CC1 | 2 | 1
CCC(CC)c1nn(CC(=O)c2cc(C)n(CCOC)c2C)c(=N)s1 | -4 | -3
CCn1c(SCC(=O)Nc2ccc(I)cc2)nnc1-c1ccco1 | -3 | -10
Cn1c(-c2cccs2)nn(CCNC(=O)Nc2ccccc2C(F)(F)F)c1=O | 4 | 1
COc1cc(C=O)c([N+](=O)[O-])cc1OC | 8 | -3
Cn1c(=O)c2nc(SCC(=O)Nc3cc(Cl)ccc3Cl)n(C)c2n(C)c1=O | 12 | 8
Cc1cc(C)n(CCNc2nc3c(F)cc(F)cc3s2)n1 | -5 | -6
CNS(=O)(=O)c1ccc(F)c(C(=O)N(Cc2cccs2)C2CC2)c1 | 2 | -1
N=c1c2c(-c3ccccc3)c(-c3ccccc3)oc2ncn1CCO | -11 | -15
COc1ccc(-c2cnc(C)[nH]2)c(-n2nc(C)cc2C)c1 | -1 | -2
Cc1nc(N(C)C)nc(-c2cccc(C(=O)O)c2)c1C | 0 | 0
CC(=O)Nc1ccc(NC(=O)c2cccn(OCc3ccccc3F)c2=O)cc1 | 3 | 1
COc1ccc(CCN(C)C(=O)c2csc(CSc3nnc(Cc4ccccc4)n3-c3cccc(C(F)(F)F)c3)n2)cc1OC | 4 | 10
COc1ccc(CN(Cc2ccc(C(O)(c3cccs3)c3cccs3)o2)C2CC2)cc1 | 4 | 10
O=C(NCCC1CCCO1)N1CCN(C(=O)c2cccc(O)c2)CC1 (stereo unspecified) | 1 | 8
COc1ccc(Nc2ncnc3[nH]ncc23)cc1 | 1 | 2
Cc1oc(-c2cc3c(cc2Cl)OCO3)nc1CN(C)C1CCCc2ccccc21 (stereo unspecified) | 11&-8 | 11&-13
CCn1cnnc1CCNc1cc(OC)ncn1 | 2 | -10
CCN(CC)S(=O)(=O)c1ccc2c(c1)nc(CCC(=O)NC1CCCC1)n2C | -1 | -4
CCN(CC)C(=O)[C@@H]1C[C@H](N)CN1C(=O)Cc1cccnc1 | -1 | -4
CC1CC(C)C(O)=C(C(=N)CC2CC(=O)NC(=O)C2)C1=O (stereo unspecified) | -18 | -16
O=C(NCCc1ccncc1)c1ccccc1NCc1cccs1 | 0 | -2
NC(=O)c1cccc(-c2ccnc3c2CC(C(=O)NCC2CC2)O3)c1 (stereo unspecified) | -4 | -7
Cc1noc(-c2ccco2)c1C(=O)NCc1ccc(S(C)(=O)=O)cc1 | 4 | 13
COc1cc(C=C2CCC(=Cc3cc(OC)c(OC)c(OC)c3)C2=O)cc(OC)c1OC | 15 | 32
CCCCCC(=O)Nc1c(-c2ccc(Cl)cc2)nc2ccccn12 | -15 | -8
Cc1cc(NC(=O)C23CC4CC(CC(C4)C2)C3)n(-c2ccccc2)n1 | -1 | -1
COc1ccc(OC)c(C2CCCN2C(=O)C=Cc2cc(Cl)c(OC)c(OC)c2)c1 (stereo unspecified) | 8 | 6
Cc1ccc2c(c1)CCCN2C(=O)CCCn1nc(-c2cccs2)ccc1=O | 1 | 6
Cn1cccc1C(=O)OCc1nc2scc(-c3ccccc3)c2c(=O)[nH]1 | 12 | 9
COc1cccc(-n2c(-c3ccccc3)cc(C(=O)N3CCN(C(=O)Cc4ccccc4)CC3)c2C)c1 | 0 | 8
COc1ccc(-c2nnc(SCC(=O)N/N=C\c3sccc3C)n2-c2ccccc2)cc1OC | -5 | -9
O=C(c1ccc(-c2cncnc2)nc1)N1CCCC(c2ccccc2)CC1 (stereo unspecified) | 14 | 8
Cc1ccc(C(=O)Nc2cc(-c3cccs3)[nH]n2)o1 | 6 | 2
O=C(CN1CCC2CCCCC2C1)NCc1ccc2c(c1)OCO2 (stereo unspecified) | 5 | 0
CCC(=O)N1CCC1(C)C(=O)Nc1cnc2ccccc2c1 (stereo unspecified) | 6 | 4
CC(C)CN(Cc1ccc(-n2cccn2)cc1)Cc1ccccn1 | -4 | 9
CC(O)(c1ccccc1)c1nc(-c2ccncc2)cs1 (stereo unspecified) | 7 | 2
O=C(c1cccnc1Cl)N1CCOC(COCc2ccccc2F)C1 (stereo unspecified) | 51* | 47*

Reformatted as comma-separated lines: entries from further up.
Compound,NPYLR7 agonist,NPYLR7 agonist max-min
Cc1noc(-c2ccco2)c1C(=O)NCc1ccc(S(C)(=O)=O)cc1,4,13
COc1cc(C=C2CCC(=Cc3cc(OC)c(OC)c(OC)c3)C2=O)cc(OC)c1OC,15,32
CCCCCC(=O)Nc1c(-c2ccc(Cl)cc2)nc2ccccn12,-15,-8
Cc1cc(NC(=O)C23CC4CC(CC(C4)C2)C3)n(-c2ccccc2)n1,-1,-1
COc1ccc(OC)c(C2CCCN2C(=O)C=Cc2cc(Cl)c(OC)c(OC)c2)c1 (stereo unspecified),8,6
Cc1ccc2c(c1)CCCN2C(=O)CCCn1nc(-c2cccs2)ccc1=O,1,6
Cn1cccc1C(=O)OCc1nc2scc(-c3ccccc3)c2c(=O)[nH]1,12,9
COc1cccc(-n2c(-c3ccccc3)cc(C(=O)N3CCN(C(=O)Cc4ccccc4)CC3)c2C)c1,0,8
COc1ccc(-c2nnc(SCC(=O)N/N=C\c3sccc3C)n2-c2ccccc2)cc1OC,-5,-9
O=C(c1ccc(-c2cncnc2)nc1)N1CCCC(c2ccccc2)CC1 (stereo unspecified),14,8
Cc1ccc(C(=O)Nc2cc(-c3cccs3)[nH]n2)o1,6,2
O=C(CN1CCC2CCCCC2C1)NCc1ccc2c(c1)OCO2 (stereo unspecified),5,0
CCC(=O)N1CCC1(C)C(=O)Nc1cnc2ccccc2c1 (stereo unspecified),6,4
CC(C)CN(Cc1ccc(-n2cccn2)cc1)Cc1ccccn1,-4,9
CC(O)(c1ccccc1)c1nc(-c2ccncc2)cs1 (stereo unspecified),7,2
O=C(c1cccnc1Cl)N1CCOC(COCc2ccccc2F)C1 (stereo unspecified),51*,47*

Next part
SMILES | NPYLR7 agonist | NPYLR7 agonist max-min
Cc1ccccc1N1C(=O)C2C3C=CC(C3)C2C1=O (stereo unspecified) | 3 | 0
CN1/C(=C/C(=O)COc2ccc3c(c2)OCO3)C(C)(C)c2ccccc21 | 0 | 0
CCOC(=O)Cn1c(C2CC(=O)N(c3ccc(C)cc3)C2)nc2ccccc21 (stereo unspecified) | 4 | 10
O=C(NCCC1CC2CCC1C2)c1ccc(N2CCOCC2)nc1 (stereo unspecified) | 6 | 3
CCOC(=O)C1CCCN(C(=O)c2cnn(-c3ccccc3Cl)c2C)C1 (stereo unspecified) | 17 | 25
Nc1nonc1-c1nc2ccccc2n1Cc1nn[nH]n1 | 12 | 6
COc1ccc(C2CC(=O)C3C(=Nc4ccccc4NC3c3cc(C)ccc3C)C2)cc1 (stereo unspecified) | -8 | -14
COc1cn(CC(=O)Nc2cccc(C)c2)c(CN2CCCCC2)cc1=O | -4 | -5
Cc1ccc(NP2(=O)C(=C3N(C)c4ccccc4C3(C)C)C=NN2c2ccccc2)cc1C (stereo unspecified) | 11 | 14
CC(C)c1ccc(C=NNC(=O)c2cc(C(C)(C)C)[nH]n2)cc1 | 4 | 8
CNC(=O)[C@@]1(OCc2cccc(F)c2)CC(OCc2cccc(C(F)(F)F)c2)[C@H](O)[C@H](O)C1 (stereo partly specified) | 5 | 17
Cc1ccc(CCC(=O)Nc2ccc3c(c2)CN(C(=O)c2ccco2)CC3)cc1 | 1 | -1
O=C(C1CCS(=O)(=O)CC1)N1CC[C@@H](c2ccc3ccccc3c2)[C@H](O)C1 | 8 | 6
O=C(CC1(O)C(=O)Nc2ccccc21)c1ccc(C2CCCCC2)cc1 (stereo unspecified) | -4 | -4
CCOc1ccc(NC(=O)CN2C(=O)c3ccccc3C2=O)cc1 | 12 | 7
CCCCCOC(=O)C1=C(C)N(C)C(=O)NC1c1ccc(Cl)c(Cl)c1 (stereo unspecified) | 1 | -1
OCC(O)Cn1c2ccc(Br)cc2c2cc(Br)cc(Br)c21 (stereo unspecified) | 5 | 8
CN(C1CCCCCC1)S(=O)(=O)N1CCCC2CCCCC21 (stereo unspecified) | 1 | 1
Cc1cn(CC(=O)N2CC(Oc3ccccc3F)C2)c(=O)[nH]c1=O | 4 | 3
O=C(Cn1cnc([N+](=O)[O-])n1)N/N=C/Cc1ccccc1 | -10 | -15
C=CCn1c(SCC(=O)Nc2cccc(O)c2)nc2sc(C)c(C)c2c1=O | -8 | -7
CC1CC(C)(C)N1C(=O)CCc1nc2cc(S(=O)(=O)N3CCOCC3)ccc2n1C (stereo unspecified) | -4 | -5
O=S(=O)(CCNS(=O)(=O)c1ccc(Br)cc1)Cc1ccccc1 | -1 | -1
Cc1nc([N+](=O)[O-])cn1Cc1nnc(N)s1 | 7 | 4
CCOC(=O)C1CCN(C(=O)c2csc(CSc3nnc(-c4ccncc4)n3-c3ccc(C)cc3)n2)CC1 | -1 | 6
Cc1ccc(-n2ncc3c(-n4nc(C)cc4NC(=O)c4cc(=O)c5ccccc5o4)ncnc32)c(C)c1 | 4 | 2
Cc1[nH]cnc1CSCCNC(=O)c1scc2c1CCCC2 | 17 | 8
COc1ccc(CCN(C)c2cc(-c3ccccc3)nc(SCc3ccc(C(=O)NCc4ccccn4)cc3)n2)cc1OC | 4 | 1
O=C1c2ccc([N+](=O)[O-])cc2C(=O)N1CC12CC3CC(CC(Br)(C3)C1)C2 | 5 | 2
Cc1cnc(NC(=O)C(C)NS(=O)(=O)c2ccccc2C(F)(F)F)s1 (stereo unspecified) | 6 | 1
OC1CSCc2nc3ccccc3n2C1 (stereo unspecified) | 3 | 7
O=C(NCCOc1ccccc1)c1ccc(Br)s1 | 14 | 5
CC(C)(C)c1ccc(CSc2nc3c(c(-c4cccs4)c2C#N)CCCC3)cc1 | -6 | -7
CCC(C)NC(=O)CN1CCC(c2nc3ccccc3s2)CC1 (stereo unspecified) | -4 | -6
COCC(=O)Nc1ccc(-n2nc(OCC(C)C)nc2-c2ccccc2F)cc1 | -7 | -9
CN(C)c1ccc(N2C(N)=NC(N)=NC2(C)C)cc1 | 18 | 7
Cc1ccnc(N2CCC(Cc3cccc(C(N)=O)c3)C2)n1 (stereo unspecified) | 8 | 2
Cc1ccc(-n2nc(C)c(N=Nc3ccccc3C)c2N)cc1 | -6 | -9
COc1cc(=O)n2c(c1C(=O)N(C)C(C)c1ccco1)CCN(C(=O)c1ccccc1)CC2 (stereo unspecified) | 0 | -2
COC(=O)c1ccc(Oc2coc3c4c(ccc3c2=O)OCN(CCc2cccs2)C4)cc1 | 8 | 6
CCOC(=O)C1CCN(C(=O)c2ccc(CSc3nc(CC)cc(N4CCCC4)n3)o2)CC1 | -3 | 4
Cn1c(=O)[nH]c(=O)c2c1nc(N1CCN(CCCc3ccccc3)CC1)n2CCc1ccccc1 | 3 | 20
O=C(NC1CCCC(C(F)(F)F)C1)c1cccc(NS(=O)(=O)c2ccccc2)c1 (stereo unspecified) | 6 | 4
N#Cc1c(NC(=O)CCCCl)sc2c1CCCC2 | -4 | -10
CNC(=O)[C@@H]1C[C@H](N)CN1C(=O)C1(Nc2ccc(OC)cc2)CCCCC1 | 8 | -5
CC1C(=O)N(C)CCN1C(=O)c1cn[nH]c1-c1cccc(F)c1 (stereo unspecified) | 1 | 6
COCCC(=O)NCCCOc1cccc([N+](=O)[O-])c1 | 9 | 1
COc1cccc2cc(-c3cc(=O)oc4cc(C)c(OCC(=O)OC(C)C)cc34)oc12 | -3 | -4
Cn1cc(C(=O)Nc2ccc(C(F)(F)F)cc2)c2[nH]c(=O)n(-c3ccccc3)c(=O)c21 | 2 | 0
O=C(O)C1CC(=O)N(c2ccc(I)cc2)C1 (stereo unspecified) | -1 | -3
Cc1ccccc1-c1noc(-c2nnn(-c3ccccc3C(F)(F)F)c2C)n1 | -5 | -9
CN(Cc1ncc[nH]1)C(=O)[C@H](N)c1ccccc1 | -8 | -11
CCOc1ccc(CCC(=O)N2CCC(N(C)S(C)(=O)=O)CC2)cc1 | 8 | 6
Cc1cccc(CN(CCc2c[nH]c3ccccc23)Cc2nc(C(=O)NCc3ccccn3)co2)c1 | 19 | 22
Cn1ccc(C(=O)Nc2cc(C(F)(F)F)ccc2-n2cccn2)cc1=O | 1 | 0
CCCCCCCOc1ccc(C(=O)NC2C=CC(C(C(=O)OC)c3ccc(F)cc3Cl)C2)cc1 (stereo unspecified) | 7 | 1
Cc1ccc(NC(=O)CN(C)C(=O)C2CCCN2S(=O)(=O)c2ccc(F)cc2)cc1 (stereo unspecified) | 16 | 11

Compound activity deposited in PubChem BioAssay by Fisher Drug Discovery Resource Center.

An excerpt (hit frequency here may not be typical).
